Screening results: PubChem BioAssay, Broad Institute
T cruzi inh: blocks replication of Trypanosoma cruzi | T. cruzi beta-gal in NIH3T3, luminescence, 90 h | inhibition, % (concentration not given with the values) | 300,000 compounds, 1.4% hits | AID 1885;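 active means mean inhibition across valid replicates above about 55%, limit read from the data; inconclusive means mean below that limit but half or more replicates reach it; inactive means mean below it, under half of replicates reach it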;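 further: signal also drops with host cell toxicity which is not excluded here; 0% = plate median of DMSO wells and 100% = zero luminescence signal; higher percent means less beta-gal luminescence so fewer parasites; stock transfer was 50 nL into about 50 µL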
Beta apoptosis: blocks beta cell apoptosis | INS-1E cytokine-induced death, ATP luminescence, 48 h; percent of positive-control rescue, neutral wells zero | 300,000 compounds, 0.8% hits | protection from apoptosis, % (no concentration beside the values) | AID 435005;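 active means all replicates at 75% or more, or half of them and the mean; inconclusive means half reach 75% but not the mean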;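 further: 0% = cytokine-treated negative control wells and 100% = positive control rescue; higher means more ATP so stronger rescue from cytokine killing; wells of about 40 µL received 100 nL stock; the first replicate is given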
FGF22 binding: shifts melting point of recombinant human FGF22; 340,000 compounds, 1.5% hits; AID 651658; recombinant FGF22 thermal shift, SYPRO orange fluorescence; percent of sucrose octasulfate shift, DMSO zero; Q9HCT0; calls only at 9.99 µM;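 active means melting point raised past a set limit in the mean and every replicate; inconclusive means no clear call; three in four hits are not shown here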
Target sequence (Q9HCT0 whole entry, looked up): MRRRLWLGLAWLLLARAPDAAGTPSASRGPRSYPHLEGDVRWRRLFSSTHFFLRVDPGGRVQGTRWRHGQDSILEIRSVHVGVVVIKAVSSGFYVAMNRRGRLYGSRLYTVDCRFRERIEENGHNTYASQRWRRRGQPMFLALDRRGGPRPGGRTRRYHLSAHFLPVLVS
Ecoli rRNA inh: inhibitors of bacterial rRNA selective over humanized ribosomes; E. coli WT GFP vs humanized-ribosome RFP mutants, fluorescence, 24 h; hits give low values; DMSO median 0, no signal -100; GFP signal change (wild-type ribosome), % (test concentration not listed); 350,000 compounds, 1.6% hits;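 active means significant combined selectivity score with lowered wild-type GFP, culture density cut under 30%, mutant RFP and density less affected; inactive means any of these conditions unmet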; further: one replicate is shown; some compounds called inactive have numbers as strong as hits
AF4-AF9 inh: blocks AF4 peptide binding to human AF9. inhibition, % at 10 µM. P42568. 350,000 compounds, 0.47% hits. AID 651704. AlphaScreen, biotin-AF4 peptide binding to FLAG-AF9;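 active means every replicate reaching a set inhibition limit, whatever the replicate mean, cut at about 25% in these data; inconclusive means mean inhibition reaches that limit but some replicates miss it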;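 further: 0% = plate neutral control median and 100% = total signal loss; the record names both 10 and 1 µM as test concentration; the first replicate is given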
Target sequence (P42568 whole entry, looked up): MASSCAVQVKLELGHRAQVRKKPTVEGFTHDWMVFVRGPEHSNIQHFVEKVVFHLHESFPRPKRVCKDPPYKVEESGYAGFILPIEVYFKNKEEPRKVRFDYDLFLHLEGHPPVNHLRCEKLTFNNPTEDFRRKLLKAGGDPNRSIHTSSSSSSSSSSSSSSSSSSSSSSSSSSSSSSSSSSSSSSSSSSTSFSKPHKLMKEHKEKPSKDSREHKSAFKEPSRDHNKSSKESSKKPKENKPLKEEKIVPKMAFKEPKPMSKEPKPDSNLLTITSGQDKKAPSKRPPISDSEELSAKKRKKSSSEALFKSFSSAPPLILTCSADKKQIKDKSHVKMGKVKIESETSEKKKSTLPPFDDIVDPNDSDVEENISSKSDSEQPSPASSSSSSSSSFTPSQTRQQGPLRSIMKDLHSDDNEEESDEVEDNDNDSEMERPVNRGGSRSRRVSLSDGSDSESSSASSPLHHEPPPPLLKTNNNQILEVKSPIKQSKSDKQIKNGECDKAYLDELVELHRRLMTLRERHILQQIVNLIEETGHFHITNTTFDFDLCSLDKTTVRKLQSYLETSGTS
Calb FLC: C. albicans growth modulation with fluconazole; 300,000 compounds, 0.57% hits; growth inhibition, % (concentration not given with the values); C. albicans CaCi-2 (fluconazole-resistant clinical isolate) + fluconazole, Alamar Blue growth, 48 h; AID 1979;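 active means most replicates above 75%; inconclusive means exactly half above 75%; inactive means most below 75%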;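 further: all wells also contain fluconazole at 8 µg/ml as a sub-toxic cotreatment; 0% = median of DMSO wells and 100% = median of geldanamycin control wells; wells of about 8 µL received 7.5 nL stock; the first replicate is given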
ALR H2O2 inh: human ALR oxidase inhibition via reduced H2O2 | inhibition, % (concentration not given with the values) | 290,000 compounds, 3.8% hits | purified ALR, DTT oxidation, H2O2 HRP-luminol luminescence;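 active means mean and each replicate at 75% or more; inconclusive means only one of the two met; inactive means neither met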;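 further: stock transfer was 7.5 nL into about 7.5 µL; 0% = neutral wells and 100% = wells with inactivated enzyme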
Target sequence (P55789 whole entry, looked up): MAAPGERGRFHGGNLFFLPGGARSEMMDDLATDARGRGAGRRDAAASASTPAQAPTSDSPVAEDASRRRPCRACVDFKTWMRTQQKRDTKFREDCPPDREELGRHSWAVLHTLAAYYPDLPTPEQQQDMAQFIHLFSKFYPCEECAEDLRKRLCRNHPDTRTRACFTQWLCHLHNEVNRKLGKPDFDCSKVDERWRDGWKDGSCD
RanGTP-Imp inh: inhibitors of RanGTP-importin-beta interaction, primary screen, biochemical, FRET, CFP-Ran, YFP-importin-beta, homogeneous. cell-free CFP-Ran/YFP-importin-beta FRET ratio. inhibition, % (no concentration beside the values). 300,000 compounds, 1.1% hits. AID 2216;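 active means most replicates above 15%; inconclusive means exactly half above 15%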;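 further: 0% = DMSO wells and 100% = Ran loaded with GDP instead of GTP; wells of about 40 µL received 100 nL stock; the first replicate is given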
Ecoli rRNA inh OD600: also measured in Ecoli rRNA inh; calls as there; OD600 change, %; measured here: OD600 growth;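 optical density of the mix in the first replicate; 0 = DMSO median and -100 = no signal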
Ecoli rRNA inh RFP: second read-out of Ecoli rRNA inh, no call of its own (marks repeat the call); RFP signal change, %; measured here: RFP humanized mutant strains;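 first replicate; 0 = DMSO median and -100 = no signal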
Starred values were filed as active, the others as inactive; i = inactive; ? = inconclusive; . = no result given.

Compound	RanGTP-Imp inh	Ecoli rRNA inh OD600	Calb FLC	AF4-AF9 inh	T cruzi inh	ALR H2O2 inh	FGF22 binding	Beta apoptosis	Ecoli rRNA inh	Ecoli rRNA inh RFP
COc1cc2c(cc1NCc1ccccn1)oc1ccccc12	3.3	.	0	.	13	50	.	1	.	.
CC(=O)Nc1ccc(S(=O)(=O)Nc2nc3ccccc3nc2N2CCc3ccccc3C2)cc1	3.9	-1	-3	3.3	-8	-5	i	-1	2	2.4
C=CCOc1ccc(/C(O)=C2\C(=O)C(=O)N(CCCOC)C2c2ccc(O)c(OC)c2)cc1 (stereo not given)	-0.1	.	5	.	.	26	.	-8	.	.
N#CCCn1nnc(-c2ccccc2F)n1	-3.5	.	-2	.	-7	-6	.	-3	.	.
CCOC(=O)c1c(C)[nH]c(NC(=O)Nc2ccc(NC(C)=O)cc2)c1C	-4.5	12	-3	-9.2	-5	8	i	-4	15	5.9
O=C(Nc1ccc(Cl)c([N+](=O)[O-])c1)C(NCCCO)c1ccccc1 (stereo not given)	1.3	.	6	.	2	-5	.	1	.	.
CCOC(=O)C1=C(O)C(=O)N(C2CCCCC2)C1	0.7	.	-3	0.8	-5	8	i	-3	.	.
COc1ccc(CNC(=O)C[C@H]2C(=O)N(CCc3ccccc3)C[C@@H]2Cc2ccccc2)cc1	0.4	-18	21	-0.6	25	.	i	6	-13	24
Cc1nn(CC(=O)NC2CCC(C)CC2)c(C)c1[N+](=O)[O-] (stereo not given)	.	10	.	2.5	.	.	i	-6	5	1.5
O=C(CNC(=O)c1cccc(Br)c1)N/N=C/c1cccs1	-1.7	-6	0	-0.5	-2	1	i	-3	1	0.4
CC(Sc1nc(-c2ccccc2)cc(C(F)(F)F)n1)C(=O)N1CCC(C(N)=O)CC1 (stereo not given)	4.1	.	15	.	-6	-5	.	-1	.	.
O=c1[nH]c(-c2ccccc2)cnc1-c1ccccc1	0.4	15	0	-0.9	-6	3	i	-3	15	0.5
Cc1cc(C)n2nc(C(=O)OCC(=O)Nc3ccc(C)c(S(=O)(=O)N4CCOCC4)c3)nc2n1	.	11	.	-0.4	.	-5	i	-7	2	-2.2
CCN(CC)S(=O)(=O)c1ccc(N=Nc2cc(C)cc(Br)c2O)cc1	?	7	25	6.3	-10	-10	.	4	21	5.3
O=C(Cn1ncc2c1-c1ccccc1OC2)N1CCc2ccccc21	5.1	-6	9	11	0	-14	i	-2	-3	-0.4
CCOc1ccc(NC(=O)CN2C(=O)c3ccccc3C2=O)cc1	-5.2	16	7	3.0	-1	-7	i	-11	22	4.2
Cc1c(C(=O)NCC2CCCO2)oc2ccc(S(=O)(=O)N3CC(C)CC(C)C3)cc12 (stereo not given)	-0.5	4	-3	0.3	14	-10	i	.	4	-1.4
CCSc1nnc(NC(=O)C2CCN(S(=O)(=O)c3c(C)c(C)cc(C)c3C)CC2)s1	2.5	.	15	.	6	-5	.	-4	.	.
CCOC(=O)c1cc(CC)sc1NC(=O)COc1ccc2c(C)cc(=O)oc2c1	6.4	.	-13	.	6	.	.	-10	.	.
O=C(Nc1ccc2c(c1)OCO2)C1CCN(C(=O)c2ccc(Cl)cc2)CC1	-0.1	-13	12	-4.4	5	-4	i	5	-17	-1.8
Cc1ccc(S(=O)(=O)N(C)C)cc1-n1c(SCC(=O)N(C)C)nc2ccccc2c1=O	2.1	-5	-6	4.9	11	10	i	1	-6	-2.5
O=C(ONC1=NCCCCC1)c1ccc([N+](=O)[O-])cc1	-1.5	3	?	0.9	24	-23	i	-4	10	-3.7
CCOC(=O)c1oc2ccccc2c1COC(=O)CNC(=O)c1cc(OC)c(OC)c(OC)c1	1.4	-7	-1	-0.4	-10	-8	i	-3	-5	2.6
NNC(=O)c1ccc(COCC(F)(F)F)cc1	1.9	1	0	-1.8	-10	-7	i	-9	12	3.0
C=CCNC(=O)CN(CCc1ccccc1)S(=O)(=O)c1ccccc1	0.6	-32	-5	-10	1	-27	i	-1	-25	-8.9
Cn1c(SCc2c(F)cccc2Cl)nc2ccccc2c1=O	.	.	.	-2.1	.	-4	i	-5	.	.
O=C(c1ccco1)N(Cc1ccccc1)Cc1ccccn1	0.5	6	-4	0.2	2	-3	i	0	5	-7.4
Cc1c(-c2ccc(/C=N/NC(=O)C(=O)Nc3ccccc3F)o2)cccc1[N+](=O)[O-]	0.4	5	2	-0.1	-11	-4	i	-2	14	3.3
Cc1c(-c2csc(N)n2)cnn1C	1.0	2	24	-0.5	-17	52	i	-4	22	29
CC(=O)NCC1CCCN(Cc2cn(-c3ccccc3)nc2-c2ccc3c(c2)OCO3)C1 (stereo not given)	-3.3	-2	11	2.3	5	-8	i	-1	5	-0.3
O=C1CCCc2[nH]c3cccc(/C(=C/c4ccccc4)c4ccccc4)c3c21	1.3	6	17	7.9	27	1	i	2	1	-7.4
O=C(CSc1nnc(COc2ccc(Cl)cc2)o1)N1CCOCC1	-0.1	12	-1	-1.2	-4	.	i	-6	15	3.8
O=C(NO)c1ccc(OC(F)F)cc1	1.3	13	1	-3.8	12	99*	i	-11	19	4.9
COc1cc(OC)c(C2N(c3cc(C)on3)C(=O)C3CCCN32)cc1OC (stereo not given)	-1.9	.	-5	.	-15	-11	.	-7	.	.
C=CC[C@@H](CC(=O)N[C@H](CO)Cc1ccccc1)C(=O)NC[C@H](OC(=O)[C@@H](CC=C)Cc1ccc(F)cc1)c1ccccc1	.	23	.	-2.7	.	1	i	-6	19	7.9
CCCc1ccc(C(=O)CN2C(=O)C(=O)N(C3CCCC3)C2=O)cc1	.	.	.	-1.5	.	-2	i	-5	.	.
Cc1ccc2occ(/C=N/NC(=O)c3ccncc3)c(=O)c2c1	-1.8	11	20	0.2	-11	10	i	-10	23	-1.4
CCCCNC(=O)c1cc2c(-c3ccc(Cl)cc3)nn(C)c2s1	-4.4	4	-4	-18	16	36	i	-4	1	0.5
CCOc1ccc(N2C(=O)CC(NCCc3c[nH]c4ccccc34)C2=O)cc1 (stereo not given)	3.8	-6	-3	1.6	-6	1	i	3	3	0.2
CC(=O)Nc1c(-c2ccccc2Cl)c(=O)c2ccccc2n1C	?	6	-5	-1.0	-4	1	i	-2	17	3.2
Cc1ccc(NC(=O)c2ccc(-n3cncn3)c([N+](=O)[O-])c2)cc1	26*	.	-15	.	-1	-50	.	-7	.	.
NC(=O)c1ccsc1NC(=O)COC(=O)Cc1ccccc1Cl	.	-5	.	4.1	.	20	i	2	-8	0.2
Cc1ccc(CNC(=O)N2CCN(C)CC2)cc1	4.1	.	-8	.	-16	-4	.	-6	.	.
S=c1[nH]nc(-c2cc(-c3ccccc3)n[nH]2)n1/N=C/C(Br)=C/c1ccccc1	0.2	-78	-6	0.1	12	-3	.	?	-47	-13
Cc1ccc(C(=O)C(C)OC(=O)CNC(=O)c2ccc(Br)o2)cc1 (stereo not given)	1.7	2	2	3.3	-6	2	i	-5	0	1.1

The closing four records of the part above come first, to join the parts.
Compound	RanGTP-Imp inh	Ecoli rRNA inh OD600	Calb FLC	AF4-AF9 inh	T cruzi inh	ALR H2O2 inh	FGF22 binding	Beta apoptosis	Ecoli rRNA inh	Ecoli rRNA inh RFP
NC(=O)c1ccsc1NC(=O)COC(=O)Cc1ccccc1Cl	.	-5	.	4.1	.	20	i	2	-8	0.2
Cc1ccc(CNC(=O)N2CCN(C)CC2)cc1	4.1	.	-8	.	-16	-4	.	-6	.	.
S=c1[nH]nc(-c2cc(-c3ccccc3)n[nH]2)n1/N=C/C(Br)=C/c1ccccc1	0.2	-78	-6	0.1	12	-3	.	?	-47	-13
Cc1ccc(C(=O)C(C)OC(=O)CNC(=O)c2ccc(Br)o2)cc1 (stereo not given)	1.7	2	2	3.3	-6	2	i	-5	0	1.1
Cc1ccc(S(=O)(=O)N/N=C/c2cccs2)cc1	9.2	3	3	-2.5	-1	.	i	-5	10	2.1
Cc1onc(-c2ccccc2)c1C(=O)N1CCN(Cc2ccccc2)CC1	-2.6	5	4	2.2	-1	-1	i	-2	-1	0.7
Cc1ccc(OCC(=O)OC2CCS(=O)(=O)C2)cc1 (stereo not given)	?	.	-12	.	-14	-6	.	3	.	.
CCCCC(=O)NNC(=O)CC(=O)Nc1ccccc1C(=O)O	-1.4	3	-3	-3.9	-8	0	i	-4	10	-3.2
O=C(CCl)c1ccc2c(c1)CCN2C(=O)C1CCCCC1	1.3	2	-22	0.3	90*	.	.	-8	8	5.7
CCN(CC)S(=O)(=O)c1ccc2c(c1)c(C(=O)O)cn2C	0.0	.	-4	.	-15	.	.	-4	.	.
O=C(CCn1cccn1)Nc1ccc2c(c1)OCO2	2.8	7	-9	-0.2	1	-9	i	2	6	-4.6
CCC(=O)Nc1nc(C)cc(SCC(=O)OC)n1	3.7	.	-9	.	-20	0	.	0	.	.
COCCOC1CCN(C(=O)C2CCC(=O)N(Cc3cccc(F)c3)C2)CC1 (stereo not given)	-0.1	10	7	0.3	-18	9	i	-2	5	-2.6
CCCCC(=O)Nc1ccc(C(=O)NCc2ccncc2)cc1	1.0	10	14	.	-28	-20	.	-2	5	-2.4
CC1(C)CC(=O)c2sc(NS(=O)(=O)c3cc(Cl)ccc3Cl)nc2C1	5.4	-10	-6	3.0	-15	4	i	-6	-3	-1.1
C=CCc1ccccc1OCC(O)CN1CCN(CCN2C(=O)c3cccc4cccc(c34)C2=O)CC1 (stereo not given)	7.2	-69	54	?	44	-20	i	24	-41	-4.6
COc1ccc(C(=O)Nc2ccc(N3CCN(C(=O)C(C)C)CC3)cc2)cc1[N+](=O)[O-]	-0.3	.	-3	.	11	1	.	2	.	.
COc1cc(C2/C(=C(\O)c3ccc4c(c3)CC(C)O4)C(=O)C(=O)N2CCN2CCOCC2)cc(OC)c1OC (stereo not given)	1.7	7	6	-0.9	-11	2	i	2	5	-0.2
Cc1ccc(Cn2ccc(NC(=O)c3noc4c3CCCCC4)n2)cc1	1.2	.	-21	.	15	-7	.	-8	.	.
COC(=O)C1=C(C)N(Cc2ccco2)C(=O)N[C@@H]1c1ccco1	2.2	-5	-11	-5.1	-16	2	i	4	4	-1.2
COC(=O)c1c(C)oc2ccc(N(C(=O)c3ccncc3)S(=O)(=O)c3ccc(C)cc3)cc12	0.6	.	-5	.	-6	3	.	62	.	.

Not all compounds are listed; count on the stated rates, not on these rows.
